Screening data: PubChem, National Center for Advancing Translational Sciences (NCATS)
Cruzain inh Det: qHTS Assay for Promiscuous and Specific Inhibitors of Cruzain (with detergent) | purified cruzain, Z-FR-AMC fluorescence, 0.01% Triton | Potency, µM, without a hit: max response, negative = inhibition, actives largely listed as inhibitors | AID 1478, 2009 | actives 0.43% (n = 200,000); active = well fitted curve in the direction sought with a large enough effect; inconclusive = small, poorly fitted or top-dose-only effect, or another doubt; inactive = no such curve, though single readings can be large; an effect the other way counts as inactive or inconclusive;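 also: plate controls were neutral wells for no effect and buffer without enzyme for full effect; nearly all actives have a fitted effect of over 40% in size; top concentration of the series not given in the record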
Target sequence (P25779 123-467 limits assumed): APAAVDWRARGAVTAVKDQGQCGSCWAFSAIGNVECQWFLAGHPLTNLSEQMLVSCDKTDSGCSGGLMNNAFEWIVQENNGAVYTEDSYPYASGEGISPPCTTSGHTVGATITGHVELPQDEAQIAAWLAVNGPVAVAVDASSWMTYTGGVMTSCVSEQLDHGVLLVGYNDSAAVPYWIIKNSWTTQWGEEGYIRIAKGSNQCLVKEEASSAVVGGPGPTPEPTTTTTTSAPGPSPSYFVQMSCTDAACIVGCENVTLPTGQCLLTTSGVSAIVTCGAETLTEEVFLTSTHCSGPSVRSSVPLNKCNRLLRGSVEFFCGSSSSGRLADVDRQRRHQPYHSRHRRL
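Cysteine protease activity tested under reducing, mildly acidic conditions (100 mM sodium acetate pH 5.5, 5 mM DTT) plus 0.01% Triton X-100. Cruzain 1.5 nM; substrate Z-FR-AMC 2 uM; 15 min compound preincubation at room temperature.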
Marburg entry inh: qHTS for inhibitors of binding or entry into cells for Marburg Virus; AID 540276, 2011; actives 1.8% (n = 300,000); Marburg virus pseudotyped entry inhibition, cell reporter; control for the full effect not named in the record; about a third of the inactives were read at about 46 µM; Potency, µM (doses to about 37.8 µM), for the others: top-dose activity change, negative = inhibition, actives largely listed as inhibitors; active = well fitted inhibition curve with a large enough effect; inconclusive = small, poorly fitted or top-dose-only effect, or effect the other way; inactive = flat fitted curve, though single readings scatter; tested in HEK293 cells; about a fifth of its hits are not listed in these tables; also: % is scaled to controls: 0 for no effect and ±100 for the full control effect; luciferase read-out
StopGo reporter: High Throughput Screening for Foot and Mouth Disease Virus Antivirals; human cells with a luciferase reporter of 2A StopGo recoding; control for the full effect not named in the record; Potency, µM (series often up to 57.9 µM), for the others: at the highest dose signal change, negative = less light; actives 1.2% (n = 410,000); active = well fitted falling curve with a large enough effect; inconclusive = small, poorly fitted or top-dose-only effect; inactive = no such curve, though single readings can be large or run the other way; tested in HEK293T cells; also: % is scaled to controls: 0 for no effect and ±100 for the full control effect; nearly all actives have a fitted effect of over 45% in size; luciferase light after 4 h
Lassa entry inh: qHTS for Inhibitors of binding or entry into cells for Lassa Virus | Lassa virus pseudotype entry inhibition, cell reporter; control for the full effect not named in the record | Potency, µM (titrated, usually from 37.9 µM), for the others: top-dose activity change, negative = inhibition, actives largely listed as inhibitors | actives 1.2% (n = 300,000); active means well fitted inhibition curve with a large enough effect; inconclusive means small, poorly fitted or top-dose-only effect, or effect the other way; inactive means flat fitted curve, though single readings scatter; tested in HEK293 cells; also: % is scaled to controls: 0 for no effect and ±100 for the full control effect; nearly all actives have a fitted effect of over 50% in size; luciferase read-out
Cruzain inh noDet: qHTS Assay for Promiscuous and Specific Inhibitors of Cruzain (without detergent); Cruzipain (Trypanosoma cruzi), P25779; purified cruzain, Z-FR-AMC fluorescence, no detergent; Potency, µM, inactives show max response, negative = inhibition, usual class: inhibitors; actives 2.3% (n = 200,000); AID 1476, 2009; active = well fitted curve in the direction sought with a large enough effect; inconclusive = small, poorly fitted or top-dose-only effect, or another doubt; inactive = no such curve, though single readings can be large; an effect the other way counts as inactive or inconclusive;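 also: plate controls were enzyme without inhibitor for no effect and buffer without enzyme for full effect; nearly all actives have a fitted effect of over 40% in size; top concentration of the series not given in the record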
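Detergent-free condition (0.00005% Triton X-100) in acetate buffer pH 5.5 with DTT. 1.5 nM enzyme and compound were pre-mixed 15 min, then 2 uM Z-FR-AMC substrate added; reaction progress from fluorescence change between first and third reads (60 s).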
RE007 growth inh: qHTS Assay for Inhibitors of the HIV-1 protein Vpr. actives 0.21% (n = 360,000). S. pombe RE007 Vpr strain, BacTiter-Glo ATP luminescence, 24 h; control for the full effect not named in the record. AID 651644, 2012. Potency, µM (doses to about 92.2 µM), for inactives: top-dose activity change, negative = less growth; active = well fitted falling curve with a large enough effect; inconclusive = small, poorly fitted or top-dose-only effect; inactive = no such curve, though single readings can be large or run the other way;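 also: % is scaled to controls: 0 for no effect and ±100 for the full control effect; nearly all actives have a fitted effect of over 50% in size; the assay follows cell death caused by Vpr and the record does not say whether a fall means rescue or toxicity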
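Fission yeast strain RE007, carrying one chromosomally integrated HIV-1 vpr copy, was seeded at OD 0.01 in PMG+AL medium with 23 nL pinned compound. After 24 h at 30 °C and 99% humidity, viability was read by BacTiter-Glo luminescence.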
NS1 inh: qHTS Assay for Inhibitors of Influenza NS1 Protein Function; S. cerevisiae slowed by influenza A NS1, growth recovery by OD600; Potency, µM (titrated, usually from 46.1 µM), for inactives: top-dose activity, positive = more growth; actives 0.4% (n = 270,000); also: actives are rising curves; nearly all actives have a fitted effect of over 50% in size
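Recovery from NS1-induced slow growth read by OD600 in budding yeast switched to galactose assay medium (pH 6.0, -URA) at 1:100 dilution. Compound 23 nl per well; the matching strain lacking NS1 serves as control.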
SARS PLP yeast: qHTS of Yeast-based Assay for SARS-CoV PLP. S. cerevisiae expressing SARS-CoV PLpro, growth rescue; control for the full effect not named in the record. Potency, µM (highest dose often 32.9 µM), for inactives: top-dose activity, positive = growth rescue. actives 0.19% (n = 330,000). AID 485353, 2010; also: 0% is about no effect; nearly all actives have a fitted effect of over 55% in size; growth read by luminescence after 48 h
Numbers without * were called inactive; ? = inconclusive; . = no result given; [ ] = another dose, or the depositor's remark. Unless noted, calls follow the shape of the dose curve; as a rule, active means well fitted rising curve with a large enough effect; inconclusive means small, poorly fitted or top-dose-only effect; inactive means no such curve, though single readings can be large or run the other way. Potency is read from the fitted curve at half-maximal effect.

entry | mol | StopGo reporter | Cruzain inh Det | SARS PLP yeast | Lassa entry inh | NS1 inh | Cruzain inh noDet | RE007 growth inh | Marburg entry inh
1 | O=C(CSc1nc2[nH]c(=O)cc(O)c2s1)Nc1nccs1 | -7% | . | 10% | 16% | . | . | -5% | ?
2 | CCOC(=O)C1CCCN(CC(=O)NC2=Nc3ccccc3N=C(C)C2c2ccccc2)C1 (stereo unspecified) | ? | -5.7% | 1% | ? | -38% | 7% | 12% | ?
3 | Cc1cc(Br)c2c(c1)C(O)(N1CCCCC1C)C(=O)N2 (stereo unspecified) | 0% | -7.5% | 5% | 10% | 5% | -7% | 8% | 3%
4 | COc1ccccc1NS(=O)(=O)c1cc(NC(=O)c2cccs2)ccc1N1CCCCC1 | 75%[activator] | -3.5% | 17% | ? | ? | 10µM* | 4% | 5.8µM*
5 | CCOP(=O)(c1ccccc1)c1nc(-c2ccccc2C)oc1NCc1ccccc1 (stereo unspecified) | -18% | . | -1% | . | 6% | . | -7% | .
6 | CCOC(=O)c1c(C)[nH]c(O)c1C=Nc1ccc(Cl)cc1 | -1% | -3.2% | 2% | ? | 24% | ? | -20% | ?
7 | C=CCN=C(C)C1=C(O)CCC1=O | 3% | 2.6% | -1% | ? | 9% | -3% | 12% | 10%
8 | CCOC(=O)c1cc(-c2ccccc2)n(CCCC(=O)Nc2ccc(C)c(Cl)c2)c1C | -28% | 0.2% | . | 15%[46.1 µM] | . | 0% | . | .

Some of the entries so far, in transposed form:
4) COc1ccccc1NS(=O)(=O)c1cc(NC(=O)c2cccs2)ccc1N1CCCCC1
5) CCOP(=O)(c1ccccc1)c1nc(-c2ccccc2C)oc1NCc1ccccc1 (stereo unspecified)
6) CCOC(=O)c1c(C)[nH]c(O)c1C=Nc1ccc(Cl)cc1

compound no.	4	5	6
StopGo reporter	75%[activator]	-18%	-1%
Cruzain inh Det	-3.5%	.	-3.2%
SARS PLP yeast	17%	-1%	2%
Lassa entry inh	?	.	?
NS1 inh	?	6%	24%
Cruzain inh noDet	10µM*	.	?
RE007 growth inh	4%	-7%	-20%
Marburg entry inh	5.8µM*	.	?

More records.
entry | mol | StopGo reporter | Cruzain inh Det | SARS PLP yeast | Lassa entry inh | NS1 inh | Cruzain inh noDet | RE007 growth inh | Marburg entry inh
9 | O=C(c1ccc(Cl)s1)N1CCN(c2ncccn2)CC1 | -24% | . | 1% | -15% | -12% | . | -6% | -6%[46.1 µM]
10 | O=C(Nc1sc2c(c1C(=O)c1ccc(Cl)cc1)CCCC2)c1cccnc1 | -16% | -1.0% | -11% | ? | 8% | ? | -8% | 3%
11 | Cc1ccc(OCC(=O)NCCCNC(=O)c2ccccn2)cc1 | 5% | . | 1% | 1%[46.1 µM] | -2% | . | -14% | 4%[46.1 µM]
12 | CC1CCN(C(=O)c2cc(-c3ccco3)on2)CC1 | 15% | . | 2% | ? | -12% | . | 9% | ?
13 | CC(=O)CCC(=O)c1ccc2ccccc2c1 | 16% | -3.0% | ? | 8% | 0% | 2% | 14% | -1%
14 | O=C(CCc1c[nH]c2ccccc12)NCCOc1ccccc1 | 0% | . | 4% | ? | 15% | . | -9% | -12%[46.1 µM]
15 | Cc1nc2ccc(Cl)cc2nc(C)/c1=N\O | 0% | -5.2% | -7% | ? | -65% | -6% | -15% | 8%
16 | CCCCn1c(SCc2nc(N)nc(N3CCCCC3)n2)nc2c1c(=O)n(C)c(=O)n2C | -17% | -1.8% | 13% | -14% | 4% | 16% | -10% | 8%

A draw from above in order of molar mass, smallest number first:
entry | mol | StopGo reporter | Cruzain inh Det | SARS PLP yeast | Lassa entry inh | NS1 inh | Cruzain inh noDet | RE007 growth inh | Marburg entry inh
15 | Cc1nc2ccc(Cl)cc2nc(C)/c1=N\O | 0% | -5.2% | -7% | ? | -65% | -6% | -15% | 8%
12 | CC1CCN(C(=O)c2cc(-c3ccco3)on2)CC1 | 15% | . | 2% | ? | -12% | . | 9% | ?
14 | O=C(CCc1c[nH]c2ccccc12)NCCOc1ccccc1 | 0% | . | 4% | ? | 15% | . | -9% | -12%[46.1 µM]
16 | CCCCn1c(SCc2nc(N)nc(N3CCCCC3)n2)nc2c1c(=O)n(C)c(=O)n2C | -17% | -1.8% | 13% | -14% | 4% | 16% | -10% | 8%

(next part)
entry | mol | StopGo reporter | Cruzain inh Det | SARS PLP yeast | Lassa entry inh | NS1 inh | Cruzain inh noDet | RE007 growth inh | Marburg entry inh
17 | N#Cc1ccc(C2N=C(c3ccccc3)NO2)cc1 (stereo unspecified) | 0% | . | -3% | . | -12% | . | 8% | ?
18 | COc1ccc(N2C(=O)CCC(C(=O)N(C)CCc3ccccn3)C2c2ccc(OC)c(OC)c2)cc1 (stereo unspecified) | -2% | . | 6% | -8%[46.1 µM] | . | . | -3% | -10%[46.1 µM]
19 | O=C(c1ccc(C(F)(F)F)cc1)N1CCCCC1 | 3% | 0.2% | -3% | 1% | 7% | 6% | -4% | -1%
20 | CC1CCN(C(=O)c2ccc(NS(=O)(=O)c3cccc4cccnc34)cc2)CC1 | -5% | . | -1% | . | -4% | . | 0% | .
21 | CCOc1ccccc1OCCCNCc1ccco1 | 2% | -1.9% | 2% | 24% | 14% | -2% | -18% | -9%
22 | CN(CCOc1ccc(Cl)cc1)C(=O)CN1C(=O)NC2(CCCC2)C1=O | -38% | . | -4% | 11% | . | . | -9% | -1%
23 | CCOc1ccc(Cl)cc1S(=O)(=O)n1cnc2ccccc21 | -12% | 3.9% | 0% | ? | -12% | 0% | -1% | -24%
24 | CC(=O)Nc1ccc(S(=O)(=O)CCC(=O)O)cc1 | . | 0.3% | -3% | 14% | 6% | -5% | -11% | -1%
25 | COc1ccc(N2CC(NC(=O)CCc3ccccc3)CC2=O)cc1OC (stereo unspecified) | 5% | -0.6% | . | 17%[46.1 µM] | . | 15% | . | .
26 | Cc1ccccc1C1c2[nH]c3ccccc3c2CCN1Cc1cccn1-c1ncccn1 (stereo unspecified) | 0% | . | -1% | . | -7% | . | -10% | .
27 | CCOc1ccccc1NC(=O)c1ccccc1NS(C)(=O)=O | 0% | 5.9% | -2% | 6% | -13% | 0% | -8% | -5%
28 | COc1ccc(Cc2nnc(NCCO)[nH]c2=O)cc1OC | -17% | . | -1% | 28%[46.1 µM] | 3% | . | -6% | -4%[46.1 µM]
29 | CC1C(=O)Nc2ccc(S(=O)(=O)N3CCc4ccccc4C3)cc2NC1=O (stereo unspecified) | ? | . | 1% | 9% | 6% | . | 10% | ?
30 | CC(C)(C)c1nc2ccc([N+](=O)[O-])cc2[nH]1 | -18% | . | 2% | ? | . | . | -2% | -7%[46.1 µM]
31 | O=C(Nc1ccc(N2CCN(C(=O)C3CC3)CC2)cc1)c1cccs1 | 21% | . | 0% | -6% | -2% | . | 12% | 15%[46.1 µM]
32 | O=C(Nc1cc(C(F)(F)F)ccc1N1CCOCC1)C1=NN(c2ccccc2)C(=O)CC1 | ? | . | -3% | . | 8% | . | -9% | .
33 | CCn1c2ccccc2c2nnc(SCC(=O)c3c(N)n(C)c(=O)n(C)c3=O)nc21 | -13% | . | 0% | 1% | 3% | . | 8% | 17%
34 | COc1ccc(-c2nc(-c3ccccn3)nc(N3CCN(C)CC3)c2C#N)cc1 | -1% | . | 1% | 9%[46.1 µM] | ? | . | -1% | ?
35 | Cc1n[nH]c(C)c1CCc1nc2c3ccccc3nc(SCC(=O)Nc3ccccc3F)n2n1 | -12% | 3.3% | -4% | -15% | 15% | 29% | -4% | ?
36 | CCOC(=O)CSc1nc2cc(C(F)(F)F)cnc2n1C | 8% | . | 0% | . | -1% | . | 2% | .
37 | CN(Cc1cc(-c2ccccc2)on1)C(=O)c1cc(COc2c(F)cccc2F)on1 | 0% | . | -2% | . | 5% | . | 4% | .
38 | COc1cc(C(=O)NCCOc2ccccc2)c(Br)c(OC)c1OC | -3% | -0.9% | -1% | 1% | -11% | 7% | 20% | -15%[46.1 µM]
39 | Cc1ccc(CNC(=O)[C@@H]2CCC(=O)N2Cc2ccco2)cc1 | 15% | 1.2% | 2% | -2% | -1% | 1% | -12% | 7%
40 | CC(C)(C)NC(=O)CN(Cc1cccs1)C(=O)CNS(=O)(=O)c1ccc(F)cc1 | 9% | . | 1% | . | 2% | . | -3% | .
41 | CCOc1ccc2c(c1)NC(c1ccc(OCC)c(OCC)c1)=NC(c1ccc(F)cc1)=N2 | 25% | -5.8% | . | 10%[46.1 µM] | . | 0% | . | -3%[46.1 µM]
42 | COCc1cc(=O)n2c(-c3ccc(C)cc3)n[nH]c2n1 | 53%[activator] | -1.4% | -1% | 7% | 22% | -8% | 18% | -23%
43 | CCn1c(N2CCC(Cc3ccccc3)CC2)nc2c1c(=O)[nH]c(=O)n2C | 28µM* | -1.9% | -6% | ? | -97% | 17% | 50% | ?
44 | COc1ccc(OC)c(NC(=O)Nc2ccc3c(c2)OCO3)c1 | 13% | . | -1% | . | 10% | . | 8% | .
45 | Cc1ccc2c(c1)nnn2C1CCN(S(=O)(=O)c2ccc(C(=O)N(C)C)cc2)CC1 | ? | -2.4% | 10% | -14% | -8% | ? | -8% | -19%
46 | Cc1ccc(C)c(NC(=O)CN(C)C(=O)c2ccc(-n3cncn3)c([N+](=O)[O-])c2)c1 | -10% | . | 6% | -17% | . | . | -4% | 18%
47 | O=C(O)c1sccc1SCc1ccc(Cl)cc1Cl | 19% | -7.6% | -5% | 2% | -79% | 9% | 3% | 10%
48 | Cc1ccc(S(=O)(=O)N2CCOC23CCN(C(=O)c2ccccc2Br)CC3)cc1 | 6% | . | -5% | . | -1% | . | 1% | .
